Mtb hypoxia rep – inhibitors of hypoxia-regulated fluorescent reporter in Mycobacterium tuberculosis | M. tuberculosis hypoxia-regulated fluorescent reporter, fluorescence | fluorescence inhibition, % (test concentration not listed) | 300,000 compounds, 0.1% hits;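 active = 35 to 45% if threefold the growth effect, above 45% if 1.5-fold the growth effect; inactive = the rest, general growth blockers included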;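 note: wells of about 50 µL received 100 nL stock; 0% = vehicle wells and 100% = reference inhibitor wells; whole bacteria with a GFP reporter of the hypoxia response; strong numbers were not always called active; many hits fall short of the cut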
PrP UTR inh – inhibition of PrP 5' UTR reporter expression. AID 488862. 340,000 compounds, 0.35% hits. inhibition, % (no concentration beside the values). cell-based PrP 5' UTR mRNA reporter, plate reader;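 active = every replicate at 50% or more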;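 note: 0 = median of the neutral control wells; tested in H4 reporter cells; numbers are from one replicate; inactives centre near -14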
ugtP null kill – kills S. aureus RN4220 lacking UgtP; S. aureus RN4220 ugtP deletion, OD600 growth, 16 h; some inactives read as strong as hits; growth inhibition, % (test concentration not listed); 330,000 compounds, 0.54% hits;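 active = z-score under -3 and OD600 up to 0.15 on both plates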;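 note: plate controls were untreated wells for no effect and antibiotic for full effect; wells of about 80 µL received 100 nL stock; the first replicate is given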
Sa RN4220 lethal – S. aureus RN4220 growth inhibition | OD600, 16 h | inhibition, % (concentration not given with the values) | 330,000 compounds, 0.33% hits;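 active = z-score of -3 or lower and OD600 up to 0.18 on both plates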;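 note: plate controls were untreated cells for no effect and reference antibiotic for full effect; stock transfer was 100 nL into about 80 µL; one replicate is shown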
Autofluor counter – counter-screen for toxin protease inhibitors: compound fluorescence | fluorescence intensity (concentration not given with the values) | AID 624483 | compound autofluorescence counterscreen, microsphere flow cytometry; active compounds read high | 360,000 compounds, 3.1% hits;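 active = at least 3 SD above the mean of all compounds, about 16000 in these data; inconclusive = too few beads counted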;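 note: 100 nL of 1 mM stock went into each well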
BJeLR viability – kills HRASV12-expressing BJeLR cells; AID 1554; inhibition, % (no concentration beside the values); BJeLR (HRASV12) viability, CellTiter-Glo ATP luminescence, 48 h; reference of the scale not given here; 300,000 compounds, 0.17% hits;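 active = replicate mean above 50%; inconclusive = above 50% but judged a plate artefact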;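 note: 50 nL library stock added to about 25 µL; numbers are from one replicate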
Mtb hypoxia rep growth – further read-out of Mtb hypoxia rep, marked with its call; growth inhibition, %; measured here: M. tuberculosis growth (absorbance);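 0% = vehicle and 100% = reference antibiotic; read after six days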
Numbers without * were called inactive; ? = inconclusive; . = not tested or not shown.

SMILES	Mtb hypoxia rep	Mtb hypoxia rep growth	PrP UTR inh	ugtP null kill	Sa RN4220 lethal	Autofluor counter	BJeLR viability
COc1ccc(C(CNC(=O)COc2ccccc2OC)N(C)C)cc1OC (stereo unspecified)	.	.	-13	8	6.3	2506	-1
CCN(CC)S(=O)(=O)c1ccc2[nH]c(=O)cc(C(=O)Nc3ccc(C)c(S(=O)(=O)N(CC)CC)c3)c2c1	-3	-1	-30	0	6.5	2864	2
O=C(O)c1ccc(-c2ccco2)n1Cc1ccccc1	10	7	-17	4	11	2999	-5
Nc1nonc1-n1nnc(C(=O)NN=Cc2ccncc2)c1CN1CCCCC1	12	-3	.	5	1.5	.	.
Cc1cccc(C=NNC(=O)CC(=O)NCCc2ccccc2)c1	14	3	.	3	3.6	.	.
Cc1cccc(NC(=O)c2ccccc2OCC(=O)c2ccc(F)cc2)c1	16	3	6	-13	2.6	2512	6
O=C(Cc1n[nH]c(=O)c2ccccc12)Nc1cc(C(F)(F)F)ccc1-n1cncn1	1	0	-11	4	2.0	6113	.
C[C@H]1CCCC(=O)CCC/C=C/c2cc(O)cc(O)c2C(=O)O1	.	.	-15	.	.	5742	2
Cc1ccc(OCC(=O)Nc2c(C)nn(-c3ccccc3)c2C)c(Br)c1	0	2	-16	4	12	?	.
C[C@]12CC(O)C3C(CCC4=CC(=O)CC[C@@]43C)C1CCC2c1csc(-c2ccccc2)n1 (stereo partly specified)	4	-4	-11	6	-17	3749	3
Cc1cc(OCC(=O)Nc2ccccc2C(N)=O)c2c(C)cc(=O)oc2c1	.	.	-7	11	8.4	5730	-8
CCCCC(c1nnnn1CS(=O)(=O)c1ccc(C)cc1)N1CCC(C(N)=O)CC1 (stereo unspecified)	0	2	-12	10	0.3	3633	-9
COc1cc(Br)c(C(=O)c2nccc3cc(OC)c(OC)cc23)cc1OC	.	.	-13	.	.	4051	17
CCCCn1c(N)c(N(CC(C)C)C(=O)CSc2n[nH]c(-c3ccc(C)cc3)n2)c(=O)[nH]c1=O	-1	5	-6	2	-0.1	.	0
C/C(CC(=O)Nc1ccc(Cl)c(C(F)(F)F)c1)=N\NC(=O)c1cccc(O)c1	.	.	-1	.	.	11461	-6
Cc1ccccc1N1C(=O)C2C3CC(=O)C(c4ccccc43)C2C1=O (stereo unspecified)	7	-1	-18	8	8.3	2124	6
CCc1ccc(NC(=O)CCNS(=O)(=O)c2cccc3nsnc23)cc1	1	0	-22	20	6.5	9715	-2
O=C(CC1C(=O)NCCN1Cc1cccc(Oc2ccccc2)c1)NCc1cccnc1 (stereo unspecified)	7	3	-17	21	1.8	4251	4
O=C(C(c1ccccc1)c1ccccc1)N1CCN(Cc2ccc(Br)cc2)CC1	17	6	-8	29	-2.8	8141	-13
O=C1N(Nc2ccccc2)C(c2ccc(Br)cc2)C12CCCCC2 (stereo unspecified)	9	5	-29	-9	12	10082	3
CC(=O)c1ccc(NC(=S)Nc2ccc(N3CCOCC3)cc2)cc1	.	.	-26	-62	9.3	3879	4
Cc1cccc(NC(=O)CC2S/C(=N/c3nccs3)N(C)C2=O)c1 (stereo unspecified)	.	.	-6	.	.	2329	-4
c1ccc(N2CCN(c3ccccc3)C2c2cccs2)cc1	8	5	-13	13	-3.5	22528*	11
COc1ccc(/C(C)=N/Nc2ncc(Cl)cc2Cl)c(O)c1	.	.	-16	.	.	2576	-2
COc1ccc(NC(=O)c2cc(-c3ccc(C)cc3)on2)cc1	.	.	-24	.	.	3881	5
(next part)
SMILES	Mtb hypoxia rep	Mtb hypoxia rep growth	PrP UTR inh	ugtP null kill	Sa RN4220 lethal	Autofluor counter	BJeLR viability
CCCNC(=O)C1CCN(S(=O)(=O)c2ccc(Br)cc2)CC1	5	4	-13	0	2.0	10661	-4
CCN(C(=O)Nc1ccccc1OC)c1c(N)n(Cc2ccccc2)c(=O)[nH]c1=O	.	.	-27	.	.	2387	10
CCN(CC)c1ncn(Cc2c(Cl)cccc2Cl)c2ncnc1-2	.	.	7	-7	5.7	3531	-9
CC(C)(C)c1ccc(C(=O)NNC(=O)c2ccncc2)cc1	-2	1	-12	4	5.3	4064	-6
Cc1cc(S(=O)(=O)Nc2ccc(C(=O)NCc3cccnc3)cc2)ccc1F	-5	-3	0	-4	-1.9	?	6
O=C(O)/C=C/C(=O)NC1CCC(CC2CCC(NC(=O)/C=C/C(=O)O)CC2)CC1 (stereo unspecified)	-3	6	-3	6	5.0	4285	0
COc1cccc(CCNCc2cccc(C(F)(F)F)c2)c1	-1	3	-14	6	4.3	3466	-3
COc1ccc(CCNC(=O)CSc2nc(-c3ccco3)cc(C(F)(F)F)n2)cc1OC	-9	8	-6	-8	1.2	9233	-9
C/C=C\C(=O)Nc1cccc(C2=NOC3(C2)C[C@@H](C(N)=O)N(C(=O)c2ccc(Cl)cc2)C3)c1 (stereo partly specified)	.	.	-14	.	.	3084	1
CCC1(c2ccc(F)cc2)NC(=O)N(CC(=O)c2ccc[nH]2)C1=O (stereo unspecified)	.	.	-4	2	4.8	3579	-3
Cc1onc(-c2c(Cl)cccc2Cl)c1CO/N=C(\C#N)c1c(Cl)cccc1Cl	.	.	-12	.	.	3724	-2
CCOC(=O)N/N=C/c1ccc(OC)c(O)c1	.	.	-36	.	.	2169	-7
Cc1ccc(C2N=C(N)Nc3nc4ccccc4n32)cc1 (stereo unspecified)	13	13	-2	3	4.0	3407	5
CCOc1ccccc1CNCc1ccc(F)cc1	17	12	-13	4	-0.7	4288	4
COc1ccc(N(CC(=O)N2CCN(Cc3ccccc3)CC2)S(C)(=O)=O)cc1	6	-5	-4	3	0.5	4189	-7
CCOC(=O)C1=C(COC(=O)/C=C/c2cc(Br)ccc2F)NC(=O)NC1C (stereo unspecified)	-7	5	-20	-7	-5.3	5597	-1
COc1ccc(C(=O)NC2CCCCCC2)cc1S(=O)(=O)N1CCCC1	-5	-6	-5	16	6.9	3625	-5
CN(C)Cc1c(C(=O)N/N=C/c2ccccc2OCc2ccc(F)cc2)nnn1-c1nonc1N	.	.	-7	.	.	2975	-3
Cc1noc2ncnc(Oc3ccc(Cl)cc3Cl)c12	6	11	-13	8	1.4	3379	-11
CCOC(=O)c1cnc(NCc2ccccc2)nc1C	8	2	-18	18	8.0	16359*	1
CCOC(=O)c1cnn(Cc2cccc(Cl)c2)c1C	3	7	-21	3	3.5	4464	-12
CCOC(=O)N1CCC(N2Cc3cccc(C(=O)N4CCN(c5cccc(C)c5C)CC4)c3C2=O)CC1	-2	-1	-21	-5	-2.3	2561	-5
COCCn1c(SC2CCOC2=O)nc2ccccc2c1=O (stereo unspecified)	0	8	-10	10	3.5	4155	7
Cn1c(-c2sc3cc(C(F)(F)F)cnc3c2-c2cccnc2)n[nH]c1=S	.	.	-20	-2	-3.6	4421	-4
Cc1cc(C)c(C)c(S(=O)(=O)NNC(=O)c2cccc(S(=O)(=O)N3CCOCC3)c2)c1C	-2	0	-15	-1	3.9	2123	4
The results go on.
SMILES	Mtb hypoxia rep	Mtb hypoxia rep growth	PrP UTR inh	ugtP null kill	Sa RN4220 lethal	Autofluor counter	BJeLR viability
Cc1cc2nnc(SCC(=O)Nc3cc(S(=O)(=O)N4CCOCC4)ccc3Cl)n2c2ccccc12	-11	1	0	-3	-1.0	2323	-18
Cc1noc(C)c1NC(=O)Nc1cccc2c1O[C@H](CN(C)C(=O)Nc1ccc3c(c1)OCO3)[C@@H](C)CN([C@H](C)CO)C2=O	1	0	-32	2	2.8	4013	.
COc1ccc(OC)c2[nH]c(=O)c(CCNS(=O)(=O)c3ccc(C)cc3)cc12	.	.	-14	5	2.0	4925	-2
COCCNc1nc(NCc2ccccc2)c2cnn(C)c2n1	13	-3	-5	-4	2.5	5670	-9
O=C(c1ccccc1)c1ccc(OCC(O)CN2CCOCC2)cc1 (stereo unspecified)	.	.	11	3	0.0	4853	4
CCN(CCNc1ccc([N+](=O)[O-])c2cccnc12)S(=O)(=O)c1ccc(Cl)cc1	7	6	-11	6	6.0	8693	10
CC(C)(C)C(=O)OCOC(=O)C1N2C(=O)C(N=CN3CCCCCC3)C2SC1(C)C (stereo unspecified)	-1	1	.	-4	1.3	.	.
O=C1CN(C(=O)CSc2nncs2)c2ccccc2N1	0	-3	-54	1	4.1	4384	-3
CN(c1ccc(OCC(=O)OCC(=O)Nc2ccccc2)cc1)S(=O)(=O)c1cccs1	4	1	-35	-5	5.4	2537	9
O=[N+]([O-])c1cccc(C(=Nc2ccc(Cl)cc2)NO)c1	-2	7	-1	-7	1.1	6289	-4
Cc1ccccc1S(=O)Cc1ccc(C(=O)NC2CC2)o1 (stereo unspecified)	6	6	-7	8	2.0	5500	-6
O=C(CCCSc1nnc(-c2cccs2)n1CC1CCCO1)c1ccccc1 (stereo unspecified)	7	9	-26	1	17	8312	-8
COc1ccccc1NC(=O)C1=C(C)NC(=O)NC1c1cccs1 (stereo unspecified)	6	10	-10	2	6.7	4618	4
COCCCn1cc(C(=O)c2ccccc2OCC(=O)Nc2cccc(F)c2)cc(C#N)c1=O	7	-5	-57	-1	1.6	2256	0
CC(=O)c1cc(-c2ccccc2)n(CC(=O)Nc2cccc(C)c2)c1C	8	1	-11	-2	-2.5	2574	-20
C[C@H](NC(=O)N1CCn2c1nc1ccccc12)C(=O)NCC1CCCO1 (stereo partly specified)	4	7	-5	-3	0.1	5731	-12
Cc1cccc(NC(=O)CS(=O)(=O)c2c[nH]c3ccccc23)c1C	3	8	-16	-2	4.9	3804	12
Clc1ccc(-c2nnc(-c3ccco3)o2)cc1	19	12	-97	-9	0.1	8258	4
CCOc1ccc2[nH]c(=O)c(CN(CC3COCCO3)C(=O)c3ccc(C)cc3)cc2c1 (stereo unspecified)	6	7	-17	4	5.1	4408	0
O=C(NCc1ccc(-c2nc3ccccc3s2)cc1)c1ccco1	2	0	-16	-2	-1.8	2089	-17
Cc1ccc(C)c(OCCC(=O)OCC(=O)NCCc2ccc(S(N)(=O)=O)cc2)c1	10	2	5	3	4.1	5886	6
O=C(Nc1ccc(Sc2ccc(Br)cc2)cc1)c1ccco1	.	.	-29	-1	-8.5	5299	4
COC(=O)COc1ccc2c(c1)O/C(=C\c1cccc([N+](=O)[O-])c1)C2=O	5	5	-3	-13	3.6	3752	7
CCn1c(C(=O)N2CCCC(C(=O)O)C2)cc2sccc21 (stereo unspecified)	-8	8	-4	-4	1.1	3001	0
CSC1=C(C#N)C2(CCCC2)C(C#N)=C(N)N1	.	.	.	1	0.0	.	-1
The list goes on:
SMILES	Mtb hypoxia rep	Mtb hypoxia rep growth	PrP UTR inh	ugtP null kill	Sa RN4220 lethal	Autofluor counter	BJeLR viability
C=CCc1ccc(OCC(O)CN2CCCCC2)c(OC)c1 (stereo unspecified)	.	.	-23	13	1.2	4135	-2
COc1ccc(/C=N/NC(=O)c2nn(C)cc2Br)cc1CSCc1ccco1	.	.	-2	.	.	4271	10
CCCCc1nc2sc3c(c2c(=O)[nH]1)CCC3	.	.	-13	8	2.0	2718	-3
CCn1cnc2cc(NCc3ccc(C)cc3)ccc21	-17	0	-124	-2	0.8	9124	-8
CCOC(=O)C1CN(S(=O)(=O)c2ccc(F)cc2)C1	6	6	-11	9	4.2	3276	-16
CCC(=O)NC(c1ccco1)c1cc(Cl)c2cccnc2c1O (stereo unspecified)	12	-1	-25	-5	6.7	4699	-3
C=CCn1c(SCC(=O)c2ccc(O)c(O)c2)nnc1-c1cccc(Cl)c1	5	-6	-4	8	6.3	4231	.

Already shown: entries from further up.
SMILES	Mtb hypoxia rep	Mtb hypoxia rep growth	PrP UTR inh	ugtP null kill	Sa RN4220 lethal	Autofluor counter	BJeLR viability
C=CCc1ccc(OCC(O)CN2CCCCC2)c(OC)c1 (stereo unspecified)	.	.	-23	13	1.2	4135	-2
COc1ccc(/C=N/NC(=O)c2nn(C)cc2Br)cc1CSCc1ccco1	.	.	-2	.	.	4271	10
CCCCc1nc2sc3c(c2c(=O)[nH]1)CCC3	.	.	-13	8	2.0	2718	-3

Part of the list above, with values under each structure.
Each structure is followed by: Mtb hypoxia rep, Mtb hypoxia rep growth, PrP UTR inh, ugtP null kill, Sa RN4220 lethal, Autofluor counter, BJeLR viability
C=CCc1ccc(OCC(O)CN2CCCCC2)c(OC)c1 (stereo unspecified)
    ., ., -23, 13, 1.2, 4135, -2
COc1ccc(/C=N/NC(=O)c2nn(C)cc2Br)cc1CSCc1ccco1
    ., ., -2, ., ., 4271, 10
CCCCc1nc2sc3c(c2c(=O)[nH]1)CCC3
    ., ., -13, 8, 2.0, 2718, -3
CCn1cnc2cc(NCc3ccc(C)cc3)ccc21
    -17, 0, -124, -2, 0.8, 9124, -8
CCOC(=O)C1CN(S(=O)(=O)c2ccc(F)cc2)C1
    6, 6, -11, 9, 4.2, 3276, -16
